Screening data: PubChem BioAssay, Broad Institute
STK33 inh – blocks human STK33 kinase activity | Q9BYT3 | purified STK33, MBP phosphorylation, ADP-Glo luminescence | inhibition, % at 10 µM | 0.073% of 320,000 active;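 active = inhibition at or above 25%, using the most active replicate where run in duplicate; inactive = inhibition below 25%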
Target sequence (Q9BYT3 whole entry, looked up): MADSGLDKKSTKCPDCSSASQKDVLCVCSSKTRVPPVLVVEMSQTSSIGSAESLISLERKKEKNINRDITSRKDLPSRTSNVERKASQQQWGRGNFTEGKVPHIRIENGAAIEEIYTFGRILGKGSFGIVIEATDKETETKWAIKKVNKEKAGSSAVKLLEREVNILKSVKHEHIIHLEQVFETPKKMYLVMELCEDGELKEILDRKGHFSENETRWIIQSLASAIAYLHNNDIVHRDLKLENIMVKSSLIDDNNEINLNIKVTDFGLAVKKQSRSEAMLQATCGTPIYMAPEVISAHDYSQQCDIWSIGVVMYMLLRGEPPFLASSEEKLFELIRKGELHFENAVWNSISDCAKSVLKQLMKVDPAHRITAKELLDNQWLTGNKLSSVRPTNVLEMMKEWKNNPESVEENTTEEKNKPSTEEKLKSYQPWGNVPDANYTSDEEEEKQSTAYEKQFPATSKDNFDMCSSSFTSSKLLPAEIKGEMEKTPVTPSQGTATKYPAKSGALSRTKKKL
The depositor's hits bear a star. Not all compounds are listed, and most or all hits are left out here.

Sample of the layout (7 entries):
SMILES	STK33 inh
Nc1nnnn1/N=C/c1cccc(O)c1	-0.7
Cc1ccc2cc(C3CC(c4cccs4)=NN3S(C)(=O)=O)c(Cl)nc2c1 (configuration not stated)	-0.2
COCCOC(=O)C1=C(N)OC2=C(C(=O)CC(C)(C)C2)C1c1ccncc1 (configuration not stated)	-1.2
Cc1ccc(CNC(=O)CN(C(=O)C2(C)CC(=O)N=C3C=CC=CN32)c2ccc(F)cc2)cc1 (configuration not stated)	-0.5
O=C(COC(=O)C(O)C(O)C(=O)OCC(=O)c1ccc(C(F)(F)F)cc1)c1ccc(C(F)(F)F)cc1 (configuration not stated)	-2.7
COc1ccc(C(=O)NNC(=O)Nc2ccc(C)cc2)cc1	-1.3
CC(=O)N(CCCCN1C(=O)c2ccccc2C1=O)c1ccc(C)cc1	-0.6

The listing, from the start:
SMILES	STK33 inh
Nc1nnnn1/N=C/c1cccc(O)c1	-0.7
Cc1ccc2cc(C3CC(c4cccs4)=NN3S(C)(=O)=O)c(Cl)nc2c1 (configuration not stated)	-0.2
COCCOC(=O)C1=C(N)OC2=C(C(=O)CC(C)(C)C2)C1c1ccncc1 (configuration not stated)	-1.2
Cc1ccc(CNC(=O)CN(C(=O)C2(C)CC(=O)N=C3C=CC=CN32)c2ccc(F)cc2)cc1 (configuration not stated)	-0.5
O=C(COC(=O)C(O)C(O)C(=O)OCC(=O)c1ccc(C(F)(F)F)cc1)c1ccc(C(F)(F)F)cc1 (configuration not stated)	-2.7
COc1ccc(C(=O)NNC(=O)Nc2ccc(C)cc2)cc1	-1.3
CC(=O)N(CCCCN1C(=O)c2ccccc2C1=O)c1ccc(C)cc1	-0.6
OCC1(Cc2ccc(Cl)cc2)CCN(Cc2ccc(F)c(F)c2)CC1	-1.0
C=CCc1c(C)nc(C)nc1N/N=C/c1ccc(N(C)C)cc1	-0.6
COc1ccccc1OCCn1cc(C#N)c2ccccc21	-1.0
CC1CC(N(C(=O)c2ccco2)c2ccccc2)c2ccccc2N1 (configuration not stated)	-0.7
CCOc1ccc(OCCCCN2CCCC2)cc1	0.6
CC(=O)c1ccc(OCCCC(=O)Nc2ccc(S(=O)(=O)N3CCOCC3)cc2)cc1	-0.5
O=C(CN1CCOCC1)NN=C(c1ccccc1)c1ccccc1	-1.6
CC(C)CC(=O)Nc1cccc(-c2nc3ccccc3o2)c1	-0.1
NS(=O)(=O)c1ccc(NC(=S)N2CCC(O)CC2)cc1	-0.9
CC1(C)C2CCC1(C)C(OC(=O)CNc1ccccc1)C2 (configuration not stated)	-0.7
Cc1ccccc1NS(=O)(=O)c1nnc(NC(=O)CC(C)C)s1	0.7
Fc1ccccc1N=C1NN=C(c2ccccc2)CS1	0.1
COc1ccc(-c2noc(CCCOc3ccc(Cl)cc3Cl)n2)cc1	-0.1
COc1cc(OC)c(Nc2cc(C)nc3nc(C)nn23)cc1Cl	1.9
COc1ccc(NC(=O)CN(C)S(=O)(=O)c2ccc(Br)s2)cc1	1.2
O=C1NC2c3ccccc3CC2O1 (configuration not stated)	-0.3
Fc1ccccc1Sc1ccccc1CNC1=NCCN1	-1.1
CCOC(=O)CSc1ncc(OC)c(=O)[nH]1	-1.6
COC(=O)c1cc2ccccc2c(=O)s1	0.1
COc1cc(Cl)cc(C=O)c1OCC(=O)O	7.2
N#Cc1cc2c([nH]c1=S)CCCCCC2	-1.0
COc1ccc(NC(=O)Cn2nnc(C(=O)NCc3ccco3)c2N)cc1	0.0
COc1ccc(CCn2c(-c3ccc(OC)cc3)nc3c(c(=O)c4ccccc4n3C)c2=O)cc1	-3.1
CO/N=C\c1cc(C(=O)c2ccc(Cl)cc2Cl)cn1C	-0.7
CCN(CCn1cccn1)C(=O)c1ccc2nc(Cc3ccc(OC)cc3)oc2c1	1.6
CC(=O)C(N=Nc1ccccc1)(Sc1nnc(-c2ccccc2)n1-c1ccccc1)C(C)=O	-1.6
CCCOc1ccc(C2=CSC3=NCCN23)cc1[N+](=O)[O-]	-0.1
CC(=O)N1CCc2c(sc(NC(=O)C3CC3)c2-c2nc3ccccc3s2)C1	0.5
CCn1c(/C=C/c2ccccc2Cl)nc2ccccc2c1=O	-0.8
COc1cc(NC(=O)COc2cc3oc(=O)cc(C)c3cc2Cl)cc(OC)c1OC	-0.9
CCc1ccc(C(C)NC(=O)/C=C/c2ccc(Br)cc2)cc1 (configuration not stated)	-0.2
Cc1cc(Cl)c2oc(C(=O)N3CCC(O)(c4ccccc4)CC3)c(C)c2c1	0.2
O=C(O)c1cccc2c(-c3ccccc3)c(-c3ccccc3)[nH]c12	-0.5
C#C[C@]1(O)CC[C@H]2[C@@H]3[C@H](C)CC4=C(CCC(=O)C4)[C@H]3CC[C@@]21C	0.4
CN(C)S(=O)(=O)Nc1ccc(C(=O)O)cc1	0.2
CCc1nc(N2CCCC2)c(C#N)c2c1CCCC2	0.6
O=[N+]([O-])c1cc(S(=O)(=O)N2CCCCC2)ccc1NCCCN1CCOCC1	3.6
Cc1cccc2cc(CNCc3ccccc3)c(Cl)nc12	-1.3
CC(=O)n1cc(/C=N/NC(=O)c2ccc(Cl)cc2)c2ccccc21	-1.6
CC1CCCCN1C(=O)C12CCC(C)(C(=O)C1)C2(C)C (configuration not stated)	-1.4
Cn1cccc1CNC1CCCCC1	-1.1

Some of the entries above, set out differently:
Cc1cccc2cc(CNCc3ccccc3)c(Cl)nc12
  STK33 inh: -1.3

COc1ccc(-c2noc(CCCOc3ccc(Cl)cc3Cl)n2)cc1
  STK33 inh: -0.1

CC(=O)c1ccc(OCCCC(=O)Nc2ccc(S(=O)(=O)N3CCOCC3)cc2)cc1
  STK33 inh: -0.5

CCN(CCn1cccn1)C(=O)c1ccc2nc(Cc3ccc(OC)cc3)oc2c1
  STK33 inh: 1.6

Additional structures
SMILES	STK33 inh
O=C(CN(Cc1ccccc1)C(=O)CNS(=O)(=O)c1ccccc1)NCC1CCCO1 (configuration not stated)	-2.1
Cc1nc2ncnn2c(C)c1CCC(=O)N1CCc2ccccc2C1	-1.8
CC(C)Oc1ccc(CC(=O)NNC(=S)Nc2ccccc2)cc1	0.5
COc1ccccc1NC(=O)CSc1nc(N)cc(N)n1	0.7
Cc1ccc(S(=O)(=O)N2CCN(CCc3ccccc3)CC2)c(C)c1	-1.5
CCOc1ccc(-n2c(SCc3cc(=O)oc4cc(C)c(C(C)C)cc34)nnc2-c2cccnc2)cc1	-0.3
COc1ccc(C(C(=O)NC2CCCC2)N(C(=O)c2snc(C(N)=O)c2N)c2cccc(O)c2)cc1 (configuration not stated)	-1.4
Cn1c(-c2ccc(F)cc2)cnc1SCC(=O)NNC(=O)Cc1ccccc1	-1.4
COC1CCCN(Cc2c(C(=O)N3CCN(C4CCCCC4)CC3)nc3ccccn23)C1 (configuration not stated)	-1.1
CCCCC1=CC2=CC(=O)C(C)(OC(=O)CC)C(=O)C2=CN1Cc1ccccc1 (configuration not stated)	-1.4
CN1CCN(CC(=O)N2c3ccccc3C(C)(c3ccc(Cl)cc3)CC2(C)C)CC1 (configuration not stated)	-1.5
CN(C)CC(C)(C)CNC(=S)Nc1cc(S(=O)(=O)N2CCOCC2)ccc1Cl	0.5
CC(NC(=O)CC1Nc2ccccc2NC1=O)c1ccccc1 (configuration not stated)	1.7
CCN(C(=O)CSc1nc2n[nH]c(C)c2c(=N)n1-c1ccc(Cl)c(C)c1)c1cccc(C)c1	-0.6
CC(C)CC(=O)Nc1c2c(nn1-c1ccc([N+](=O)[O-])cc1)CS(=O)(=O)C2	-1.0
CC1CN(C(=O)COC(=O)c2ccc(Cl)c(N)c2)CC(C)O1 (configuration not stated)	-1.3
COc1ccc(NC(=O)Cc2c(Cl)cccc2Cl)cn1	-0.9
NC(=O)c1ccccc1NC(=O)Cc1cccs1	0.2
CCOC(=O)Cn1c(=O)oc2cc(S(=O)(=O)NCCc3ccc(OCC)c(OCC)c3)ccc21	0.3
C/C(=N\NC(=O)C1CC1c1ccccc1)c1cccc([N+](=O)[O-])c1 (configuration not stated)	0.3
COc1cccc(=O)c2c(C)n(-c3cc(C)cc(C)c3)c(C)c12	0.5
CN1CCN(CC(=O)Nc2cccc([N+](=O)[O-])c2)CC1	-1.2
Cc1nonc1NC(=O)OCCN1CCOC1=O	-0.2
Cc1cc(C)nc(N/N=C/c2ccncc2)n1	3.1
COCCNC(=S)N(CCc1c(C)[nH]c2ccc(F)cc12)Cc1ccco1	-0.3
COc1ccc(Nc2ccc([N+](=O)[O-])c3nonc23)c(OC)c1	-0.9
CCN(CC)c1ccc(NC(=O)CN2CCN(CC(=O)Nc3ccccc3OC)CC2)cc1	-0.4
CC(=O)Nc1ccccc1C(=O)N1CCN(c2cccc(C)c2C)CC1	0.2
COc1ccc(C2=NOC(C(=O)NCCCN3CCOCC3)C2)cc1 (configuration not stated)	-2.0
COC(=O)c1nc(NC(C)=O)n[nH]1	-0.6
COc1ccc(-c2ccc(-c3noc(-c4cccs4)n3)c(OC)n2)cc1	-0.6
O=C(CCc1c[nH]c2ccccc12)NCCc1ccc2c(c1)OCCO2	-1.7
O=C(NCCOc1ccccc1)C(=O)c1c[nH]c2ccccc12	-3.1
COc1ccc(CCNC(=O)CC(Cc2ccc(C)cc2)C(=O)O)cc1OC (configuration not stated)	-0.7
COc1ccc(-c2noc(=O)n2Cc2ccccc2F)cc1	-0.5
Clc1ccc(CN2C3=NCCCN3c3ccccc32)cc1	-0.4
Cc1cc(C)nc(S/C=C/C(=O)c2ccccc2)n1	-1.9
Cc1ccc(CSc2nnc(SCC(=O)N/N=C/c3c(C)nn(-c4ccccc4)c3C)s2)cc1	0.0
Cc1ccc(-c2noc(CN3C(C)CCCC3C)n2)cc1 (configuration not stated)	0.9
COCC(=O)Nc1nc(-c2ccccc2)c(C)s1	-0.3
CN(C)c1nc(N)c2ncc(=S)[nH]c2n1	0.6
CC(C)CC(=O)NCC(C)NC(=O)CC(C)C (configuration not stated)	-0.5
O=C(CCc1c[nH]c2ccccc12)OCC(=O)N1CCN(S(=O)(=O)c2ccccc2)CC1	0.3
CC(C)Nc1nnc(SCc2cc(=O)n3ccsc3n2)s1	-0.9
CCN(CC)C(=O)CC(c1ccc2c(c1)OCO2)c1c(OC)cc(OC)c2ccc(=O)oc12 (configuration not stated)	-2.4
CN(C)c1cc[n+](CC(=O)Nc2cc(C(F)(F)F)ccc2Cl)cc1	-2.0
Cc1cc(C(=O)NP(=O)(N2CC(C)OC(C)C2)N2CC(C)OC(C)C2)c(C)n1C1CC1 (configuration not stated)	0.0
CCOc1ccccc1NC(=O)c1cc(C(=O)c2cc(OC)ccc2O)coc1=N	-0.5
CC(C)c1ccc(CN(C(=O)c2cc3ccccc3oc2=O)C2CCS(=O)(=O)C2)cc1 (configuration not stated)	-2.3
Nc1ccc(SCC(=O)Nc2cccc([N+](=O)[O-])c2)cc1	0.5
O=C(NCCS(=O)(=O)N1CCN(c2ccccc2)CC1)c1ccco1	-1.6
O=C(CCSc1nc(-c2ccco2)cc(C(F)(F)F)n1)NCC1CCCO1 (configuration not stated)	1.3
Nc1nonc1C(=O)NCCNC(=O)c1cccs1	-0.6
COc1ccc(/C=N/OCC(=O)N(Cc2ccc(OC)cc2)c2ccccc2C(=O)O)cc1	-1.0
O=C(CC(Cc1ccccc1)C(=O)O)Nc1cccc(C(F)(F)F)c1 (configuration not stated)	-2.1
O=C(NCCCN=C1NS(=O)(=O)c2ccccc21)c1ccc(Cl)cc1	-1.7
C=CCn1c(SCC(=O)Nc2ccccc2OC)nc(O)c(CC)c1=O	0.1
O=C(Nc1ncccn1)c1ccc([N+](=O)[O-])o1	-0.8
CCCC(CCC(=O)Nc1ccc(C(=O)OCC)cc1)C(=O)O (configuration not stated)	0.2
COc1ccc(S(=O)(=O)Oc2ccc3ccccc3c2)cc1	-2.6
Remaining list, next part.
SMILES	STK33 inh
O=C(O)C1CCCN(S(=O)(=O)c2ccc(Br)cc2)C1 (configuration not stated)	7.6
CCOC(=O)c1c(C)n(C)c2cc(OCCN(CC)CC)ccc12	-1.5
CCCCCCCc1nc2sc3c(c2c(=O)n1N)CC(C)(C)OC3	-1.8
CC(C)c1ccc(CN(C)CC(O)c2ccccc2)cc1 (configuration not stated)	-0.1
CCn1cc(/C=C(\NC(=O)c2ccc(OC)c(OC)c2)C(=O)NCCCO)c2ccccc21	-2.0
COc1ccc(C(=O)n2nnc3ccccc32)cc1Br	-1.9
Cc1cc(NC(=S)NC(=O)CC(C)C)ccc1Br	-0.1
O=C(CCN1C(=O)C2C3C=CC(C3)C2C1=O)NCCc1ccccc1Cl (configuration not stated)	-1.0
O=C(O)CCN1C(=O)C2CCCCC2C1=O (configuration not stated)	-0.8
CCOc1ccc(S(=O)(=O)NC2CC2)cc1C(N)=O	-1.2
COc1cc(C2CC(=O)c3c(O)cc(O)cc3O2)ccc1O (configuration not stated)	2.4
CC(OC(=O)c1cc[n+]([O-])cc1)C(=O)NCc1ccccc1 (configuration not stated)	0.1
COCCNC(=O)C1CC(c2cccc(F)c2)=NO1 (configuration not stated)	-1.6
Cc1cccc(Nc2nc(N3CCOCC3)nc(N3CCOCC3)n2)c1	-1.0
COCCSc1nnc(NC(=O)Cc2ccc(OC)cc2)s1	-1.6
O=C(CCC(=O)OCC(=O)c1ccc(Br)cc1)Nc1cccc2cccnc12	-1.7
Cc1ccc2c(CC(=O)NC3=NCCS3)coc2c1	0.5
CC(=O)c1cn(CC(=O)NCc2cccnc2)c2ccccc12	-1.8
CCOC(=O)CC1C(=O)NCCN1C(=O)Nc1ccccc1 (configuration not stated)	-3.8
O=C(CN(C(=O)c1csnn1)c1cccc(C(F)(F)F)c1)NC1CCCC1	-0.6
COCCn1c(-c2ccc(OC)cc2)cnc1N	-0.8
CCOc1ccc(NC(=O)CSc2ncn[nH]2)cc1	-1.1
CC(C)=CC1C(C(=O)NCCOc2ccccc2)C1(C)C (configuration not stated)	0.7

Part of the list above, as a markdown table.
| SMILES | STK33 inh |
| --- | --- |
| COCCSc1nnc(NC(=O)Cc2ccc(OC)cc2)s1 | -1.6 |
| O=C(CCC(=O)OCC(=O)c1ccc(Br)cc1)Nc1cccc2cccnc12 | -1.7 |
| Cc1ccc2c(CC(=O)NC3=NCCS3)coc2c1 | 0.5 |
| CC(=O)c1cn(CC(=O)NCc2cccnc2)c2ccccc12 | -1.8 |
| CCOC(=O)CC1C(=O)NCCN1C(=O)Nc1ccccc1 (configuration not stated) | -3.8 |
| O=C(CN(C(=O)c1csnn1)c1cccc(C(F)(F)F)c1)NC1CCCC1 | -0.6 |
